Screening data (PubChem BioAssay)
HPGD inh: inhibitors of human 15-hydroxyprostaglandin dehydrogenase (HPGD); actives 4.3% (n = 150,000); AID 894; purified HPGD, NADH fluorescence kinetic, PGE2 substrate; Potency, µM, for inactives: at the top dose activity change, negative = inhibition, most hits filed as inhibitors; active = well fitted inhibition curve with a large enough effect (not every such curve was filed as active); inconclusive = small, poorly fitted or top-dose-only effect, or another doubt; inactive = no such curve, though single readings can be large or run the other way;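 note: top concentration of the series not given in the record; plate controls included wells without enzyme; inactives centre near -10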
Target sequence (P15428 whole entry, looked up): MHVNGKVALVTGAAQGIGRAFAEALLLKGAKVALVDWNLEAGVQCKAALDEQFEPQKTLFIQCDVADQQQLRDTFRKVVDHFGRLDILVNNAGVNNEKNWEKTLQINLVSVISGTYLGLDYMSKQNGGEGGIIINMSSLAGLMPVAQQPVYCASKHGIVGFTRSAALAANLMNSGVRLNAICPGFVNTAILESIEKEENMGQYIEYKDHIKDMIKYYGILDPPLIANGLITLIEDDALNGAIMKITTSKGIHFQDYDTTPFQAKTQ
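NADH formation kinetics: reaction with 30 uM PGE2 and 1 mM NAD+ (final), 20 nM enzyme, Tris-HCl pH 8 with Tween 20, after 15 min compound preincubation at room temperature. Fluorescence change, last versus first of five reads.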
* hit, by the source's call; & = joins results of further samples. % is set by controls: 0 for no effect and ±100 for the full control effect; potency is the fitted concentration of half-maximal effect.

Screening COCCN=C1OC(=O)N2C(=O)C3=C4C(C[C@H]5C(=O)N(c6ccccc6)C(=O)[C@H]5[C@H]4[C@@]12Cc1ccccc1)[C@H]1C(=O)N(c2ccccc2)C(=O)[C@H]1[C@H]3C (some centres undefined) returned HPGD inh -11%.
`O=C(CC1CCCC1)Nc1ccc2c(c1)CCC2` gave HPGD inh 14µM*.
`O=C(CNC(=O)c1ccccc1)N/N=C/c1cc(Br)ccc1O` gave HPGD inh -10%.
For CC1CN(S(=O)(=O)c2cccs2)CC(C)O1 (centres undefined) the results were HPGD inh -11%.
Screening Cc1nnc(SCC(=O)Nc2ccc3c(c2)OCCO3)n1CC1CCCO1 (centres undefined) returned HPGD inh 0%.
`O=C(CCN1CCN(C/C=C/c2ccccc2)CC1)Nc1ccc(Cl)cc1` gave HPGD inh -2%.
Screening CC(C)CNC(=O)COC(=O)CNC(=O)c1cc(Cl)cc([N+](=O)[O-])c1 returned HPGD inh 0%.
`COc1ccc(CCn2c(-c3ccco3)nc3ccccc3c2=O)cc1OC` gave HPGD inh 3%.
O=C(Cc1ccc(-n2c(=O)[nH]c3ccsc3c2=O)cc1)NCc1cccnc1 was read as HPGD inh -14%.
For COc1ccc(CC(=O)N2CCN(C(=O)c3ccco3)CC2)cc1 the results were HPGD inh inconclusive.
For CC(CN1CCOCC1)c1ccccc1 (centres undefined) the results were HPGD inh -8%.
For COc1ccc(-c2nnc(SCC(=O)NC(C)c3ccccc3)o2)cc1 (centres undefined) the results were HPGD inh -2%.
Screening CCOc1ccccc1Cn1c(=O)oc2ccc(C)cc21 returned HPGD inh -25%.
`CN(C)c1ccc(C(CNC(=O)c2ccccc2)c2c[nH]c3ccccc23)cc1` (centres undefined) gave HPGD inh -3%.
CCC(C)(C)NC(=O)C(C)OC(=O)c1nsc(Cl)c1Cl (centres undefined) was read as HPGD inh -19%.
Screening Cc1ccc(OCC(=O)N/N=C/c2cc([N+](=O)[O-])ccc2N2CCCCC2)cc1 returned HPGD inh -9%.
Screening CCc1nc2ccccc2c(C(=O)OCC(=O)Nc2ccc(S(=O)(=O)N3CCOCC3)cc2)c1C returned HPGD inh -20%.
COc1cccc(/C=C(/C#N)c2ccc(F)cc2)c1OCc1cccc(C(=O)O)c1 was read as HPGD inh inconclusive.
`Cc1ccc(NC(=O)CSc2ncc(S(=O)(=O)c3ccccc3)c(=O)[nH]2)cc1C` gave HPGD inh -23%.
Screening COC(=O)[C@@]1(Cc2ccc(OC)cc2)[C@H]2c3cc(C(=O)N(C)C)[nH]c3C[C@H]2CN1C(=O)c1ccccc1 returned HPGD inh -18%&-3%.
For CC1CCC(C(=O)NC(C(=O)N2CCc3ccccc3C2)C(C)C)CC1 (centres undefined) the results were HPGD inh -8%.
`Cc1nnc(SCC(=O)NNC(=O)c2ccccc2)n1-c1ccccc1` gave HPGD inh -4%.
`O=C1CC(=O)CC(c2ccco2)C1` gave HPGD inh 5%.
CCOCCCNC(=O)CN1C(=O)/C(=C/c2ccccc2)Sc2ccccc21 was read as HPGD inh inconclusive.
For CN(c1ccccc1)S(=O)(=O)c1cccc(C(=O)OCC(=O)NCc2ccc3c(c2)OCO3)c1 the results were HPGD inh -9%.
For Cc1cnn(-c2cc(N/N=C/c3ccc(F)cc3)ncn2)c1 the results were HPGD inh -2%.
For CCCOc1cccc(-c2cc(C(=O)NN)c3ccccc3n2)c1 the results were HPGD inh -22%.
`COc1ccc(Cl)cc1NC(=O)CN1C(=O)CCS(=O)(=O)c2ccccc21` gave HPGD inh -14%.
O=C(c1csnn1)N1CCC2(CC1)CCN(C(c1ccccc1)c1ccccc1)CC2 was read as HPGD inh -12%.
For C/C(Cn1cnc([N+](=O)[O-])n1)=N\NC(=O)c1ccc(F)cc1 the results were HPGD inh 1%.
Screening C/C(CC(=O)Nc1c(C)cc(C)cc1C)=N\NC(=O)OC(C)(C)C returned HPGD inh 4%.
`COc1ccc(C2=NN3C(=O)c4c(ccc(OC)c4OC)C3C2)cc1` (centres undefined) gave HPGD inh -20%.
Screening COc1ccc2nc(SCC(=O)Nc3ccc(S(=O)(=O)N4CCCC4)cc3)c(C#N)cc2c1 returned HPGD inh -13%.
`CN(CC(=O)N1CCN(c2ccc(F)cc2)CC1)S(=O)(=O)c1ccc(F)cc1` gave HPGD inh inconclusive.
Screening CC1=CC2=NC(=O)/C(=C\c3ccc(-c4ccc(Cl)cc4)o3)C(=N)N2O1 returned HPGD inh -14%.
Screening CCCC(=O)Nc1ccc(C(=O)NCCc2ccc(F)cc2)cc1 returned HPGD inh -14%.
Screening CN1CCCC2(CCN(C(=O)c3cccc(F)c3)CC2)C1 returned HPGD inh -2%.
Screening CN(CC(=O)NCCC1=CCCCC1)S(=O)(=O)c1ccc2c(c1)c(=O)n(C)c(=O)n2C returned HPGD inh -10%.
Screening CC(Oc1ccccc1)C(=O)Nc1oc(-c2ccco2)c(-c2ccco2)c1C#N (centres undefined) returned HPGD inh -7%.
For O=C(c1cccc(F)c1)N1CCC[C@@]2(CCN(c3ccccc3)C2)C1 the results were HPGD inh 7.9µM*.
For COc1ccccc1-c1nnc(SCC(=O)O)n1C the results were HPGD inh -1%.
c1ccc(C(CN2CCOCC2)c2ccccc2)cc1 was read as HPGD inh 1%.
For COc1ccc2c(c1)OC/C(=C/c1ccc(O)c(O)c1)C2=O the results were HPGD inh -21%.
`O=C(CCN1CCN(C/C=C/c2ccccc2)CC1)Nc1ccccc1` gave HPGD inh -5%.
Cc1ccc(NCc2nnc(SCC(N)=O)n2CC2CCCO2)c(C)c1 (centres undefined) was read as HPGD inh -1%.
NC(=O)C1CCN(C(=O)c2ccc(C(F)(F)F)cc2)CC1 was read as HPGD inh -12%.
`Clc1ccc(Cn2ncc3c(NCc4cccnc4)ncnc32)cc1` gave HPGD inh -10%.
For CCC(=O)Nc1cccc(NC(=O)CSc2nnc(C3CC3)n2C)c1 the results were HPGD inh -4%.
Screening O=C(CC(C(=O)N1CCc2ccccc21)n1ccnc1)NCc1ccccc1 (centres undefined) returned HPGD inh 3%.
Screening CN(C)S(=O)(=O)c1cccc(C(=O)OCC(=O)Nc2sccc2C#N)c1 returned HPGD inh -10%.
O=C1S/C(=C\C=C\c2ccco2)C(=O)N1c1ccccc1 was read as HPGD inh -9%.
Screening c1nc(N2CCC3(CC2)OCCO3)c2c3c(sc2n1)CCCC3 returned HPGD inh -3%.
O=C(O)C1CCN(C(=O)c2scc3c2OCCO3)CC1 was read as HPGD inh -10%.
For O=C(CCn1c(=O)c2sccc2n(CC(=O)OCc2ccccc2)c1=O)NCc1ccco1 the results were HPGD inh -24%.
Screening Cc1cc(C)n2nc(SCC(=O)Nc3c(C)n(C)n(-c4ccccc4)c3=O)nc2n1 returned HPGD inh -17%.
For COc1ccccc1N1CCN(Cc2nc(N)nc(Nc3ccc(C)c(Cl)c3)n2)CC1 the results were HPGD inh -8%.
Screening Cc1cccc(NC(=S)NC2CC3CCC(C2)N3Cc2ccco2)c1 (centres undefined) returned HPGD inh -16%.
O=C(/C=C/c1ccc(Cl)cc1Cl)N1CCN(c2ccccc2[N+](=O)[O-])CC1 was read as HPGD inh -16%.
`CS(=O)(=O)N(Cc1ccccc1)c1ccc(C(=O)NC2CCCCC2O)cc1` (centres undefined) gave HPGD inh -6%.
For Cc1ccccc1-n1c(C)nnc1SCC(=O)N1CC(=O)Nc2ccccc21 the results were HPGD inh -4%.
`CCOc1ccccc1NC(=O)CSc1nnc(-c2ccccn2)n1Cc1ccco1` gave HPGD inh -16%.
For c1ccc(-c2ccc(CN3C[C@@H]4C(c5ccccc5)C5(c6cccnc6)CC4(C5)[C@H]3c3ccccc3)cc2)cc1 (some centres undefined) the results were HPGD inh -6%.
Screening Cc1ccc(Sc2oc(/C=N/n3cnnc3)cc2Br)cc1 returned HPGD inh inconclusive.
`O=S(=O)(c1ccc(F)cc1)c1nc(-c2ccco2)oc1Nc1ccccc1` gave HPGD inh -13%.
Screening CC(C)c1ccccc1NC(=O)c1cccnc1 returned HPGD inh -10%.
Cc1cccc(OCCn2c(=O)sc3ccccc32)c1 was read as HPGD inh -6%.
For COC(=O)CNC(=O)/C=C/c1ccc(OC)cc1 the results were HPGD inh -11%.
Screening Cn1c(=O)c2c(nc(OCC3COC(C)(C)O3)n2Cc2ccccc2F)n(C)c1=O (centres undefined) returned HPGD inh 2%.
`O=C(N1CCOCC1)N1CCC(n2nnc3cc(F)ccc32)CC1` gave HPGD inh -3%.
For Oc1ccc(/C=C/c2ccnc3ccccc23)cc1 the results were HPGD inh inconclusive.
C/C(NCC(C)(C)CN(C)C)=C(/C#N)C(=O)NCc1ccccc1 was read as HPGD inh -23%.
`CC1=C(C(=O)Nc2ccccc2C)C2(CCCCC2)C(C(N)=O)C(=S)N1` (centres undefined) gave HPGD inh -17%.
Screening CN1CCN(C(=O)N2CCNC2=O)CC1 returned HPGD inh -7%.
CCOc1ccccc1N1CCN(C(=S)Nc2ccc(S(N)(=O)=O)cc2)CC1 was read as HPGD inh -4%.
CO/N=C/NC(=O)c1c(OC)ccnc1Oc1ccccc1 was read as HPGD inh -8%.
`CCC(Sc1nc(=O)cc(N)n1-c1cccc(C)c1)C(=O)Nc1cc(C)on1` (centres undefined) gave HPGD inh -5%.
`N#CC1=C(C=Nc2ccccc2O)CCC1` gave HPGD inh -2%.
`O=C(CSc1ncn[nH]1)Nc1ccc2c(c1)CCC2` gave HPGD inh -4%.
CCCC(=O)NC(c1ccc2c(c1)OCO2)c1cc(Cl)c2cccnc2c1O (centres undefined) was read as HPGD inh -8%.
Screening CCCCNC(=O)CO/N=C(\C)c1cc2ccccc2o1 returned HPGD inh -26%.
For CC1CC(C)CN(C(=O)c2ccc3c(=O)n(Cc4ccc5c(c4)OCO5)c(=S)[nH]c3c2)C1 (centres undefined) the results were HPGD inh 16µM*.
CCCn1c(CC)nc([N+](=O)[O-])c1S(=O)(=O)c1ccccc1 was read as HPGD inh -12%.
CC(=O)Nc1ccc(S(=O)(=O)NCCNC(=O)c2ccccc2F)cc1 was read as HPGD inh -7%.
For CCc1cccc(C)c1NC(=S)NCCc1c(C)[nH]c2ccc(C)cc12 the results were HPGD inh -7%.

Taken from above, 16 compounds:
`O=C(N1CCOCC1)N1CCC(n2nnc3cc(F)ccc32)CC1` gave HPGD inh -3%.
For Oc1ccc(/C=C/c2ccnc3ccccc23)cc1 the results were HPGD inh inconclusive.
C/C(NCC(C)(C)CN(C)C)=C(/C#N)C(=O)NCc1ccccc1 was read as HPGD inh -23%.
`CC1=C(C(=O)Nc2ccccc2C)C2(CCCCC2)C(C(N)=O)C(=S)N1` (centres undefined) gave HPGD inh -17%.
Screening CN1CCN(C(=O)N2CCNC2=O)CC1 returned HPGD inh -7%.
CCOc1ccccc1N1CCN(C(=S)Nc2ccc(S(N)(=O)=O)cc2)CC1 was read as HPGD inh -4%.
CO/N=C/NC(=O)c1c(OC)ccnc1Oc1ccccc1 was read as HPGD inh -8%.
`CCC(Sc1nc(=O)cc(N)n1-c1cccc(C)c1)C(=O)Nc1cc(C)on1` (centres undefined) gave HPGD inh -5%.
`N#CC1=C(C=Nc2ccccc2O)CCC1` gave HPGD inh -2%.
`O=C(CSc1ncn[nH]1)Nc1ccc2c(c1)CCC2` gave HPGD inh -4%.
CCCC(=O)NC(c1ccc2c(c1)OCO2)c1cc(Cl)c2cccnc2c1O (centres undefined) was read as HPGD inh -8%.
Screening CCCCNC(=O)CO/N=C(\C)c1cc2ccccc2o1 returned HPGD inh -26%.
For CC1CC(C)CN(C(=O)c2ccc3c(=O)n(Cc4ccc5c(c4)OCO5)c(=S)[nH]c3c2)C1 (centres undefined) the results were HPGD inh 16µM*.
CCCn1c(CC)nc([N+](=O)[O-])c1S(=O)(=O)c1ccccc1 was read as HPGD inh -12%.
CC(=O)Nc1ccc(S(=O)(=O)NCCNC(=O)c2ccccc2F)cc1 was read as HPGD inh -7%.
For CCc1cccc(C)c1NC(=S)NCCc1c(C)[nH]c2ccc(C)cc12 the results were HPGD inh -7%.

Additional entries
`Cc1ccc(Cl)cc1N1CCN(S(=O)(=O)c2cnc[nH]2)CC1` gave HPGD inh -10%.
For CCN(C(=O)c1cnc2scc(C)n2c1=O)c1ccccc1C the results were HPGD inh -6%.
For CCOC(=O)c1[nH]c2ccc(F)cc2c1NC(=O)CN1CCN(C/C=C/c2ccccc2)CC1 the results were HPGD inh inconclusive.
For CC1CCN(C(c2cccs2)c2nnnn2Cc2ccccc2)CC1 (centres undefined) the results were HPGD inh -19%.
N#CCCCn1c(-c2ccccc2)noc1=O was read as HPGD inh 0%.
COc1ccccc1NC(=S)NCCC(c1ccccc1)c1ccccc1 was read as HPGD inh -11%.
For COc1ccc([N+](=O)[O-])cc1N(CC(O)Cn1nnc2ccccc21)S(=O)(=O)c1ccc(C)cc1 (centres undefined) the results were HPGD inh 28µM*.
Cc1cc(C)n(S(=O)(=O)c2ccc(C(C)(C)C)cc2)n1 was read as HPGD inh 20µM*.
`COc1ccccc1-c1ccc(NC2CCCCC2)nn1` gave HPGD inh 7.1µM*.
Screening O=C(c1cccc(N2CCCC2=O)c1)N1CCN(c2ccccc2)CC1 returned HPGD inh -15%.
Screening Cc1cccc(NC(=O)CN2C(=O)NC(C)(c3ccc4c(c3)OCO4)C2=O)c1 (centres undefined) returned HPGD inh -12%.
COc1ccc(OCCNC(=O)c2cccc(Oc3ccc(C(F)(F)F)cc3[N+](=O)[O-])c2)cc1 was read as HPGD inh -20%.
`Cc1ccc(-n2nc(C)c3c2OC(N)=C(C#N)C3c2ccccc2F)cc1` (centres undefined) gave HPGD inh -14%.
Screening CCOC(=O)c1oc2ccc(S(=O)(=O)Nc3ccc4c(c3)n(C)c(=O)n4C)cc2c1C returned HPGD inh -28%.

An excerpt; rates above refer to the full screens.
